A1 apoptosis 2: compounds inhibiting A1, read as caspase activation; MEF A1-2A-BIM cells, caspase-Glo luminescence, 3 h; percent of clofoctol response, DMSO zero; 24,000 tested, under 10 active; caspase activation, % (test concentration not listed); in the data active = caspase activation above about 5.9%;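 also: wells of about 30 µL received 50 nL stock; the first replicate is given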
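System: mouse embryonic fibroblasts co-expressing A1 and BIM (A1-2A-BIM), primed for A1 dependence; amount: 2500 cells/well; doses: 50 nL pinned compound; schedule: cells settled overnight, compound exposure 3 h at 37 °C, 5% CO2; detection: Caspase-Glo 3/7 luminescence, 1 h at room temperature; read-out: Caspase-3/7 activation, seen as rise in luminescence signal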
* = called active by the depositor. Only part of the results is shown; the hit share may differ from the screen's.

SMILES	A1 apoptosis 2
COc1ccc(S(=O)(=O)N(C)C[C@H]2OCCCC[C@@H](C)Oc3ccc(NC(=O)NC(C)C)cc3C(=O)N([C@@H](C)CO)C[C@H]2C)cc1	-0.3
C[C@@H]1CN([C@H](C)CO)C(=O)c2cccc(NC(=O)C3CCCCC3)c2O[C@H]1CN(C)Cc1ccc(Cl)c(Cl)c1	0.0
C[C@H](CO)N1C[C@H](C)[C@@H](CN(C)C(=O)NC2CCCCC2)Oc2ccc(NC(=O)C3CC3)cc2C1=O	-0.2
C[C@@H]1CCCCO[C@@H](CN(C)C(=O)c2ccncc2)[C@H](C)CN([C@@H](C)CO)C(=O)c2cc(NS(=O)(=O)c3ccccc3)ccc2O1	0.5
COc1ccc(S(=O)(=O)Nc2ccc3c(c2)C(=O)N([C@@H](C)CO)C[C@@H](C)[C@H](CN(C)C)OCCCC[C@@H](C)O3)cc1	0.0
C[C@@H]1CN([C@@H](C)CO)C(=O)c2cc(NC(=O)Cc3ccccc3)ccc2O[C@@H](C)CCCCO[C@H]1CN(C)S(=O)(=O)c1ccc(Cl)cc1	1.0
Cc1noc(C)c1S(=O)(=O)N(C)C[C@H]1Oc2ccc(NC(=O)Nc3ccccc3)cc2CC(=O)N([C@@H](C)CO)C[C@@H]1C	0.0
C[C@H]1CN([C@@H](C)CO)C(=O)c2cccc(NC(=O)c3nc4ccccc4s3)c2O[C@@H]1CN(C)Cc1ccc(C(=O)Nc2ccccc2N)cc1	-0.5
COc1ccc(C#Cc2ccc3c(c2)[C@]2(C(=O)N3)[C@H](c3ccc(O)cc3)N3[C@H](c4ccccc4)[C@H](c4ccccc4)OC(=O)[C@H]3[C@@H]2C(=O)N2CCCCCCC2)cc1	0.5
Cc1ccc(S(=O)(=O)N(C)C[C@H]2Oc3ccc(NC(=O)Nc4ccc(F)cc4)cc3C(=O)N([C@H](C)CO)C[C@H]2C)cc1	-0.4
Cc1ccc(S(=O)(=O)Nc2ccc3c(c2)C(=O)N([C@@H](C)CO)C[C@H](C)[C@H](CN(C)C(=O)Cc2ccccc2)OCCCC[C@@H](C)O3)cc1	-0.3
C[C@H](CO)N1C[C@H](C)[C@@H](CN(C)C(=O)Nc2cccc3ccccc23)Oc2ccc(NS(C)(=O)=O)cc2CC1=O	0.8
C[C@@H](O)[C@@H](O)[C@@H](O)C/C=N/NC(=O)c1cccc(C(=O)NO)c1	1.1
C[C@@H]1CCCCO[C@H](CN(C)C(=O)Nc2ccccc2)[C@H](C)CN([C@@H](C)CO)C(=O)c2cc(NS(=O)(=O)c3ccc(Cl)cc3)ccc2O1	-1.8
O=C1CS(=O)(=O)C(c2ccccc2)N1c1ccccc1 (stereo not drawn)	0.0
C[C@@H]1CN([C@@H](C)CO)C(=O)c2cc(NC(=O)NC3CCCCC3)ccc2O[C@@H]1CN(C)Cc1ccc(Cl)c(Cl)c1	0.0
C[C@@H]1CCCCO[C@@H](CN(C)S(=O)(=O)c2cccs2)[C@H](C)CN([C@@H](C)CO)C(=O)c2cc(NC(=O)Cc3ccccc3)ccc2O1	0.5
C[C@H]1CN([C@@H](C)CO)C(=O)c2cccc(NC(=O)Nc3cccc4ccccc34)c2O[C@@H]1CN(C)S(=O)(=O)c1cccs1	0.6
C[C@@H]1CN([C@@H](C)CO)C(=O)CCCn2nncc2CO[C@H]1CN(C)S(=O)(=O)c1ccc(Cl)cc1	0.8
C[C@@H]1CN([C@@H](C)CO)C(=O)c2cccc(N(C)C)c2O[C@H]1CN(C)Cc1ccc(Oc2ccccc2)cc1	0.1

5 of these compounds in another layout:
| Molecule | A1 apoptosis 2 |
| --- | --- |
| Cc1ccc(S(=O)(=O)Nc2ccc3c(c2)C(=O)N([C@@H](C)CO)C[C@H](C)[C@H](CN(C)C(=O)Cc2ccccc2)OCCCC[C@@H](C)O3)cc1 | -0.3 |
| O=C1CS(=O)(=O)C(c2ccccc2)N1c1ccccc1 (stereo not drawn) | 0.0 |
| C[C@@H](O)[C@@H](O)[C@@H](O)C/C=N/NC(=O)c1cccc(C(=O)NO)c1 | 1.1 |
| C[C@H]1CN([C@@H](C)CO)C(=O)c2cccc(NC(=O)Nc3cccc4ccccc34)c2O[C@@H]1CN(C)S(=O)(=O)c1cccs1 | 0.6 |
| C[C@@H]1CCCCO[C@H](CN(C)C(=O)Nc2ccccc2)[C@H](C)CN([C@@H](C)CO)C(=O)c2cc(NS(=O)(=O)c3ccc(Cl)cc3)ccc2O1 | -1.8 |

More entries follow:
SMILES	A1 apoptosis 2
CC(C)NC(=O)Nc1ccc2c(c1)C(=O)N([C@@H](C)CO)C[C@@H](C)[C@@H](CN(C)C(=O)Cc1ccccc1)OCCCC[C@@H](C)O2	-0.3
COc1ccc(CN(C)C[C@H]2Oc3ccc(NS(=O)(=O)c4ccc(F)cc4)cc3C(=O)N([C@@H](C)CO)C[C@@H]2C)cc1	0.5
Cc1noc(C)c1NC(=O)N(C)C[C@H]1Oc2c(NC(=O)c3ccncc3)cccc2C(=O)N([C@@H](C)CO)C[C@@H]1C	0.9
C[C@H](CO)N1C[C@H](C)[C@@H](CN(C)S(C)(=O)=O)Oc2ccc(NS(=O)(=O)c3ccccc3)cc2C1=O	0.1
COc1ccc(NC(=O)Nc2ccc3c(c2)C(=O)N([C@H](C)CO)C[C@H](C)[C@@H](CN(C)S(=O)(=O)c2ccc(Cl)cc2)OCCCC[C@@H](C)O3)cc1	1.3
C[C@@H]1CN([C@@H](C)CO)C(=O)c2cccc(NC(=O)c3cnccn3)c2O[C@H]1CN(C)Cc1ccc(C(=O)Nc2ccccc2N)cc1	0.6
CNC[C@H]1Oc2ccc(NC(=O)NC3CCCCC3)cc2C(=O)N([C@@H](C)CO)C[C@H]1C	0.1
C[C@@H]1CN([C@H](C)CO)C(=O)c2cc(N(C)C)ccc2O[C@@H]1CN(C)S(=O)(=O)c1cccs1	-0.4
C[C@@H]1CN([C@@H](C)CO)C(=O)c2cc(NC(=O)Nc3ccc4c(c3)OCO4)ccc2O[C@@H](C)CCCCO[C@H]1CN(C)Cc1ccccc1	-0.2
CC(=O)n1cc([C@H]2C=C(C(=O)Nc3ccccc3)O[C@@H](OCCCCO)C2)c2ccccc21	0.1
C[C@H](CO)N1C[C@H](C)[C@H](CN(C)Cc2ccc(C(F)(F)F)cc2)Oc2c(NC(=O)C3CCOCC3)cccc2C1=O	-0.4
C[C@@H]1CCCCO[C@@H](CN(C)S(=O)(=O)c2ccccc2)[C@H](C)CN([C@H](C)CO)C(=O)c2cc(NS(=O)(=O)c3cn(C)cn3)ccc2O1	0.7
Cc1noc(C)c1S(=O)(=O)Nc1ccc2c(c1)C(=O)N([C@@H](C)CO)C[C@H](C)[C@H](CN(C)Cc1ccccc1)OCCCC[C@H](C)O2	-0.2
C[C@@H]1CCCCO[C@@H](CN(C)Cc2ccc(C(F)(F)F)cc2)[C@@H](C)CN([C@@H](C)CO)C(=O)c2cc(NC(=O)Nc3ccccc3)ccc2O1	-0.9
C[C@H]1CN([C@@H](C)CO)C(=O)c2cc(NC(=O)Cc3cn(C)c4ccccc34)ccc2O[C@@H]1CN(C)C(=O)NC1CCCCC1	0.2
C[C@H](CO)N1C[C@H](C)[C@@H](CN(C)C(=O)Nc2cccc3ccccc23)Oc2ccc(NS(=O)(=O)c3cn(C)cn3)cc2C1=O	0.2
C[C@@H]1CN([C@H](C)CO)C(=O)c2cccc(NC(=O)NC3CCCCC3)c2O[C@@H]1CN(C)C(=O)Nc1cccc2ccccc12	0.8
C[C@@H]1CN([C@@H](C)CO)C(=O)Cc2cc(NC(=O)NC3CCCCC3)ccc2O[C@H]1CN(C)S(=O)(=O)c1cn(C)cn1	-0.9
COc1ccc(CN(C)C[C@@H]2Oc3ccc(NC(=O)Cc4ccccc4)cc3C(=O)N([C@H](C)CO)C[C@@H]2C)cc1	-0.3
COc1ccc(NC(=O)N(C)C[C@@H]2OCCCC[C@H](C)Oc3ccc(NC(=O)Nc4ccc(C(F)(F)F)cc4)cc3C(=O)N([C@@H](C)CO)C[C@@H]2C)cc1	0.6
C[C@H](CO)N1C[C@H](C)[C@H](CN(C)Cc2ccc3c(c2)OCO3)Oc2c(NC(=O)C3CC3)cccc2C1=O	0.8
COc1ccc(S(=O)(=O)N(C)C[C@H]2Oc3c(NS(=O)(=O)c4ccccc4)cccc3C(=O)N([C@@H](C)CO)C[C@H]2C)cc1	-1.6
C[C@H]1CN([C@@H](C)CO)C(=O)Cc2cc(NC(=O)Cc3cn(C)c4ccccc34)ccc2O[C@@H]1CN(C)Cc1ccccc1	-0.5
C[C@H]1CN([C@@H](C)CO)C(=O)c2cccc(NC(=O)C3CCCCC3)c2O[C@H]1CN(C)CC1CC1	1.3
C[C@H](CO)N1C[C@H](C)[C@@H](CN(C)C(=O)Nc2ccc3c(c2)OCO3)Oc2c(NS(=O)(=O)c3ccc(F)cc3)cccc2C1=O	0.0
COc1ccc(CN(C)C[C@@H]2Oc3c(NC(=O)Nc4c(C)noc4C)cccc3C(=O)N([C@@H](C)CO)C[C@H]2C)cc1	-0.6
CC(C)NC(=O)Nc1ccc2c(c1)CC(=O)N([C@H](C)CO)C[C@@H](C)[C@@H](CN(C)C(=O)Nc1ccc(F)cc1)O2	1.9
C[C@H]1CN([C@@H](C)CO)C(=O)c2cc(NS(=O)(=O)c3ccc(F)cc3)ccc2O[C@@H]1CN(C)C(=O)Nc1ccc(F)cc1	0.6
C[C@H](CO)N1C[C@H](C)[C@H](CN(C)CC2CC2)Oc2ccc(NC(=O)C3CCCCC3)cc2CC1=O	0.0
C[C@@H]1CCCCO[C@H](CN(C)C(=O)CCC(F)(F)F)[C@H](C)CN([C@H](C)CO)C(=O)c2cc(NC(=O)NC3CCCCC3)ccc2O1	0.8
Cc1noc(C)c1NC(=O)Nc1ccc2c(c1)C(=O)N([C@@H](C)CO)C[C@H](C)[C@@H](CN(C)Cc1ccccc1)OCCCC[C@H](C)O2	0.6
CC(C)NC(=O)Nc1ccc2c(c1)CC(=O)N([C@@H](C)CO)C[C@@H](C)[C@@H](CN(C)S(=O)(=O)c1ccccc1)O2	0.3
Cc1ccc(S(=O)(=O)N(C)C[C@@H]2OCCCC[C@@H](C)Oc3ccc(NS(=O)(=O)c4ccc(F)cc4)cc3C(=O)N([C@H](C)CO)C[C@H]2C)cc1	-0.4
C[C@H](CO)N1C[C@H](C)[C@H](CN(C)Cc2ccc(Oc3ccccc3)cc2)Oc2ccc(NC(=O)CCCN(C)C)cc2CC1=O	1.2
C[C@H](CO)N1C[C@H](C)[C@H](CN(C)Cc2ccncc2)Oc2c(NC(=O)Nc3ccc(F)cc3)cccc2C1=O	0.1
C[C@H](CO)N1C[C@H](C)[C@@H](CN(C)S(=O)(=O)c2ccccc2)OCCCC[C@H](C)Oc2ccc(N(C)C)cc2C1=O	0.0
C[C@H]1CN([C@@H](C)CO)C(=O)Cc2cc(NC(=O)Nc3cccc4ccccc34)ccc2O[C@H]1CN(C)Cc1ccc(C(=O)Nc2ccccc2N)cc1	0.2
Cc1ccc(S(=O)(=O)Nc2ccc3c(c2)CC(=O)N([C@@H](C)CO)C[C@H](C)[C@H](CN(C)Cc2ccc4c(c2)OCO4)O3)cc1	1.2
C[C@H](CO)N1C[C@H](C)[C@H](CN(C)S(=O)(=O)c2ccc(Cl)cc2)Oc2ccc(NC(=O)C3CC3)cc2CC1=O	-0.5
C[C@@H]1CN([C@H](C)CO)C(=O)c2cc(NC(=O)C3CC3)ccc2O[C@H]1CN(C)C	0.5
C[C@@H]1CN([C@@H](C)CO)C(=O)c2cc(N(C)C)ccc2O[C@H]1CN(C)S(=O)(=O)c1cn(C)cn1	0.0
COc1ccc(S(=O)(=O)N(C)C[C@H]2Oc3ccc(NC(=O)Cc4ccccc4)cc3C(=O)N([C@@H](C)CO)C[C@@H]2C)cc1	1.2
C[C@H](CO)N1C[C@H](C)[C@H](CN(C)S(=O)(=O)c2ccc(C#N)cc2)Oc2ncc(C#Cc3ccc(F)cc3)cc2C1=O	-0.7
O=NC(=O)c1cccc(C(=O)NNC=C2C=CN(O)C=C2)c1	1.4
C[C@H]1CN([C@@H](C)CO)C(=O)c2cc(NC(=O)NC3CCCCC3)ccc2O[C@H]1CN(C)C	0.8
COc1ccc(S(=O)(=O)N(C)C[C@@H]2Oc3c(NC(=O)NC4CCCCC4)cccc3C(=O)N([C@H](C)CO)C[C@H]2C)cc1	0.4
C[C@@H]1CN([C@@H](C)CO)C(=O)Cc2cc(NC(=O)CCC(F)(F)F)ccc2O[C@@H]1CN(C)S(=O)(=O)c1ccc(Cl)cc1	-1.1
Cc1noc(C)c1S(=O)(=O)Nc1ccc2c(c1)C(=O)N([C@H](C)CO)C[C@H](C)[C@@H](CN(C)C(=O)CCC(F)(F)F)OCCCC[C@H](C)O2	0.7
C[C@@H]1CCCCO[C@H](CN(C)S(=O)(=O)c2ccc(F)cc2)[C@@H](C)CN([C@H](C)CO)C(=O)c2cc(N(C)C)ccc2O1	0.9
C[C@H]1CN([C@@H](C)CO)C(=O)c2cc(NC(=O)CCCN(C)C)ccc2O[C@@H]1CN(C)Cc1ccc(-c2ccccc2)cc1	0.1
C[C@@H]1CCCCO[C@H](CN(C)C(=O)C2CCCCC2)[C@@H](C)CN([C@@H](C)CO)C(=O)c2cc(NC(=O)Nc3ccccc3)ccc2O1	0.2

3 records drawn at random from the list so far, as already listed:
SMILES	A1 apoptosis 2
Cc1noc(C)c1S(=O)(=O)Nc1ccc2c(c1)C(=O)N([C@@H](C)CO)C[C@H](C)[C@H](CN(C)Cc1ccccc1)OCCCC[C@H](C)O2	-0.2
COc1ccc(CN(C)C[C@@H]2Oc3ccc(NC(=O)Cc4ccccc4)cc3C(=O)N([C@H](C)CO)C[C@@H]2C)cc1	-0.3
C[C@H](CO)N1C[C@H](C)[C@H](CN(C)Cc2ccc(Oc3ccccc3)cc2)Oc2ccc(NC(=O)CCCN(C)C)cc2CC1=O	1.2

High-throughput results deposited in PubChem by Broad Institute.
